Screens deposited in PubChem by several laboratories.
Mtb hypoxia rep = inhibitors of hypoxia-regulated fluorescent reporter in Mycobacterium tuberculosis; 300,000 compounds, 0.1% hits; fluorescence inhibition, % (concentration not given with the values); M. tuberculosis hypoxia-regulated fluorescent reporter, fluorescence;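 active means 35 to 45% if threefold the growth effect, above 45% if 1.5-fold the growth effect; inactive means the rest, general growth blockers included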;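 further: wells of about 50 µL received 100 nL stock; 0% = vehicle wells and 100% = reference inhibitor wells; whole bacteria with a GFP reporter of the hypoxia response; strong numbers were not always called active; many hits fall short of the cut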
BJeLR viability = kills HRASV12-expressing BJeLR cells; BJeLR (HRASV12) viability, CellTiter-Glo ATP luminescence, 48 h; reference of the scale not given here; inhibition, % (no concentration beside the values); AID 1554; 300,000 compounds, 0.17% hits;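 active means replicate mean above 50%; inconclusive means above 50% but judged a plate artefact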;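 further: 50 nL library stock added to about 25 µL; numbers are from one replicate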
PrP 5UTR inh = suppresses PrP 5' UTR mRNA reporter expression | cell-based PrP 5' UTR mRNA reporter, plate reader | inhibition, % (concentration not given with the values) | 340,000 compounds, 0.35% hits | AID 488862;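 active means every replicate at 50% or more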;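 further: 0 = median of the neutral control wells; tested in H4 reporter cells; numbers are from one replicate; inactives centre near -14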
RN4220 kill = S. aureus RN4220 growth inhibition; inhibition, % (concentration not given with the values); OD600, 16 h; 330,000 compounds, 0.33% hits;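 active means z-score of -3 or lower and OD600 up to 0.18 on both plates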;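 further: plate controls were untreated cells for no effect and reference antibiotic for full effect; stock transfer was 100 nL into about 80 µL; one replicate is shown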
Sa ugtP lethal = compounds lethal to S. aureus RN4220 ugtP deletion mutant. OD600 growth, 16 h; some inactives read as strong as hits. growth inhibition, % (test concentration not listed). 330,000 compounds, 0.54% hits. AID 1259309;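 active means z-score under -3 and OD600 up to 0.15 on both plates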;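 further: plate controls were untreated wells for no effect and antibiotic for full effect; wells of about 80 µL received 100 nL stock; the first replicate is given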
Bead autofluor = compound fluorescence in toxin protease inhibitor counterscreen. 360,000 compounds, 3.1% hits. AID 624483. fluorescence intensity (no concentration beside the values). compound autofluorescence counterscreen, microsphere flow cytometry; stronger effect = higher value;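 active means at least 3 SD above the mean of all compounds, about 16000 in these data; inconclusive means too few beads counted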;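 further: 100 nL of 1 mM stock went into each well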
Mtb hypoxia rep growth = further read-out of Mtb hypoxia rep, marked with its call; growth inhibition, %; measured here: M. tuberculosis growth (absorbance);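 0% = vehicle and 100% = reference antibiotic; read after six days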
An asterisk follows results filed as active; u = inconclusive; x = no result given.

SMILES	Mtb hypoxia rep	Mtb hypoxia rep growth	BJeLR viability	PrP 5UTR inh	RN4220 kill	Sa ugtP lethal	Bead autofluor
CCC(C)NC(=O)C1=C(C)C(=O)OC12CCC(C)CC2 (centres undefined)	2	6	-6	-13	-3.4	-1	5314
COc1cc(-c2noc(C)c2/C=C/c2cccc([N+](=O)[O-])c2)cc(OC)c1OC	x	x	15	58*	x	x	2967
O=C1/C(=C/c2ccccc2)CCCc2ccccc21	9	7	-5	-39	-1.1	6	6937
Cc1cc(C(=O)NNC(=O)C(C)(C)Oc2ccc(Cl)cc2)c(C)o1	10	-5	x	-27	3.3	7	4733
COc1cc(C=NN2CCN(Cc3ccccc3)CC2)cc(OC)c1OC(C)=O	8	3	x	x	3.1	12	x
COc1ccc(C(=O)N2CCN(c3ccc(C)c(C)c3)CC2)cc1OC	x	x	2	-19	1.9	4	6130
FC(F)(F)c1cccc(NC(=S)Nc2ccc(Cl)cc2Cl)c1	-4	14	3	1	98*	84*	2976
CC(=O)Oc1ccc(-c2nc3c(C)cccc3c(=O)o2)cc1	-1	19	1	-25	-0.7	3	3701
CCC1CO/C(=C(\C(Cl)=C(Cl)Cl)[N+](=O)[O-])N1 (centres undefined)	7	2	-1	-13	4.4	-1	3181
NC(=O)c1ccsc1NC(=O)COC(=O)c1cc(=O)[nH]c2ccccc12	-4	-3	11	-17	3.3	0	x
CN1/C(=C/C(=O)COC(=O)C2COc3ccccc3O2)C(C)(C)c2ccccc21 (centres undefined)	6	3	x	-31	1.2	2	3628
CCOC(=O)c1cccc(C(=O)Nc2nc3ccc(OC)cc3s2)n1	13	-6	1	-36	13	-18	4261
COc1ccccc1C(=O)NC(CCSC)C(=O)OC(C)C(=O)NC1CC1 (centres undefined)	-4	-8	11	-30	0.2	-3	6452
CCc1cccc(CC)c1NC(=O)COC(=O)C1(c2ccc(Cl)cc2)CCCC1	-4	-6	-8	0	2.6	-2	9943
CC(O)CNc1nc2sc3c(c2c(=O)n1Cc1ccco1)CCCCC3 (centres undefined)	7	7	12	-27	4.2	13	4451
Cc1nn(-c2nnc(C)c(=O)[nH]2)c(C)c1SCC(=O)Nc1ccc(C(C)C)cc1	6	10	-4	12	-4.8	-2	u
COc1ccc(O)c(CN2CCCC(C(=O)c3sccc3C)C2)c1 (centres undefined)	12	9	1	-5	6.3	2	4569
O=C(c1cc(F)ccc1F)C1CCCN(Cc2ccc3nonc3c2)C1 (centres undefined)	11	15	43	-6	8.2	2	3373
COc1ccc(-n2c(Cc3cccn3C)nnc2SCC(=O)Nc2ccc(C(C)=O)cc2)cc1	x	x	3	-1	-4.1	-2	6057
COc1cc(/C=N/Nc2nc3c(c(=O)n(C)c(=O)n3C)n2Cc2ccccc2)ccc1OC(=O)c1ccco1	x	x	16	-3	x	x	7595
O=C(c1cnc2ccccc2n1)N1CCN(c2ccc(C(F)(F)F)cn2)CC1	4	11	0	-19	2.3	-4	4178
Cc1ccc(O)c(N=Nc2ccccc2)n1	-4	2	4	-88	5.1	-6	6103
Cc1nc(SCC(=O)NCc2ccco2)[nH]c(=O)c1C	7	2	9	-8	4.0	16	6291
CCCCNC(=O)c1ccc(S(=O)(=O)c2ccc(Cl)cc2)c(NC(C)=O)c1	1	4	3	-10	2.3	-2	21746*
CC(C)(C)NC(=O)c1ccc2c(c1)N(CC(=O)NC1CCCC1)C(=O)C(C)(C)O2	0	10	5	-19	-0.1	6	5274
CC12CCC(C(=O)n3c1nc1ccccc13)C2(C)C (centres undefined)	7	4	2	-13	10	3	7354
CCCOC(=O)c1cc(-c2ccc(/C=C3/C(=O)N(C)C(=O)C(C#N)=C3C)o2)ccc1Cl	-3	12	x	-52	6.9	-8	22120*
CC1(OC(=O)C2CCCC2)C(=O)C=C2C=C(c3ccsc3)N(C3CC3)C=C2C1=O (centres undefined)	8	6	-10	-13	4.8	5	2513
O=C(CS(=O)(=O)c1ccc(F)cc1)Nc1nnc(-c2ccccc2Cl)o1	1	4	-5	-3	12	2	x
COc1ccc(CNc2nc3nc(C)c(Cl)c(C)n3n2)cc1OC	-5	4	-3	-10	-3.5	-9	3326
CCCCCCCCN=C1NC(=O)CS1	3	14	-8	-4	0.9	2	10949
Cc1ccc(S(=O)(=O)N(C)C)cc1NC(=O)COC(=O)c1ccc2c(=O)n3c(nc2c1)CCC3	-4	-7	5	-17	3.7	2	x
O=C(NC(Cc1cnc[nH]1)C(=O)O)c1ccccc1 (centres undefined)	6	5	-1	-16	-0.5	1	2741
Cc1cccc2sc(N(CCCN(C)C)C(=O)c3ccc(Cl)s3)nc12	14	11	10	-18	-5.8	14	5230
COc1ccccc1N1CCN(CC(=O)Nc2ccnn2C2CCCC2)CC1	13	4	x	-22	4.8	5	x
CCOc1ccc(CN2CCN(Cc3ccon3)CC2CCO)cc1 (centres undefined)	-4	1	6	-19	4.6	8	2019
Cc1cc(C)c2c(CC(=O)NNC(=O)c3ccccc3)coc2c1	-2	2	-1	-32	2.7	3	5792
Cn1c(O)c(N=NC(=O)c2ccccc2O)c2ccccc21	2	1	-3	-73	21	0	3410
CCn1c(SCc2ccc([N+](=O)[O-])cc2)nnc1C(C)NC(=O)c1ccccc1Br (centres undefined)	3	-1	0	-6	1.7	1	5687
Cc1cc(/C(N)=N/OC(=O)c2ccccc2Cl)no1	10	9	-8	-69	2.4	-3	x
Cc1ccc(CCNC(=O)CCSCc2ccc(Cl)cc2)cc1	4	1	12	-22	5.0	-6	2213
O=C(NCCCN1CCOCC1)c1cc(Cl)ccc1Cl	5	1	3	-27	-0.2	0	4022
O=C(CN1C(=O)c2ccccc2S1(=O)=O)NCCSc1ccccc1	x	x	2	-6	0.4	1	4394
CC1C2Cc3ccc(O)cc3[C@]1(C)CCN2CCc1ccccc1 (some centres undefined)	x	x	x	-2	3.8	-11	7079
O=C(OCC#CCSc1nnc(-c2cccc3ccccc23)o1)c1ccc(F)cc1	x	x	x	-15	5.8	3	3379
CC(C)CN(C(=O)COC(=O)c1cc2c(s1)CCC2)C1CCS(=O)(=O)C1 (centres undefined)	6	7	-2	-12	5.9	4	3950
COC(=O)CN1C(=O)C2(OCCCO2)c2cc(Br)ccc21	0	5	0	5	-3.3	-4	23376*
Cc1ccc2nc(CSc3nnc(Nc4ccccc4F)s3)cc(=O)n2c1	0	4	15	-28	4.3	18	2309
COc1ccc(OCC(O)CN2CCN(c3ccc(OC)cc3)CC2)cc1 (centres undefined)	-7	7	-2	-6	-4.5	8	3967
COc1ccc(S(=O)(=O)n2ccc(-c3ccc(OCCN(C)c4ccccn4)cc3)n2)cc1	13	17	-5	-28	2.3	10	3832

Additional results
SMILES	Mtb hypoxia rep	Mtb hypoxia rep growth	BJeLR viability	PrP 5UTR inh	RN4220 kill	Sa ugtP lethal	Bead autofluor
O=c1oc2ccccc2c(Nc2ccccc2)c1CN1CCCCC1	11	-3	-3	-17	6.3	10	4624
CSc1nnc(C(C)(C)C)c(=O)n1/N=C/c1ccccc1	x	x	-1	-6	x	x	5716
CCCn1nnnc1NCc1c(Cl)cccc1Cl	-1	4	-2	-14	-3.8	-19	4330
C#CCOc1ccc(OC)cc1C(c1c(C)[nH][nH]c1=O)c1c(C)[nH][nH]c1=O	12	-2	3	-25	2.2	1	x
CN(C(=O)COC(=O)COc1ccc2ccccc2c1)c1c(N)n(Cc2ccccc2)c(=O)[nH]c1=O	25	2	x	6	-0.5	3	2808
CN(c1cccc(NC(=O)COc2ccccc2)c1)S(C)(=O)=O	12	9	-6	-51	6.8	7	9296
O=C(Cc1ccc(-n2c(=S)[nH]c3ccccc3c2=O)cc1)N1CCC(N2CCCCC2)CC1	-8	0	1	11	1.0	0	23979*
Cc1cc(O)c2c(c1O)C(=O)[C@]13C(=C2O)C(=O)[C@@H]2[C@@H](O)[C@H]1[C@@H]1[C@H](O)[C@H]3C(=O)C3=C(O)c4c(O)cc(C)c(O)c4C(=O)[C@]312	x	x	x	22	99*	99*	5062
COCCCNC(=O)c1cccn2c(=O)c3cc4ccccc4cc3nc12	14	0	-8	-14	6.1	-2	24282*
Cc1csc(SCC(=O)N(C)C2CCS(=O)(=O)C2)n1 (centres undefined)	-5	5	x	0	0.0	1	5345

By substructure: those above containing a tert-butyl group.
SMILES	Mtb hypoxia rep	Mtb hypoxia rep growth	BJeLR viability	PrP 5UTR inh	RN4220 kill	Sa ugtP lethal	Bead autofluor
CC(C)(C)NC(=O)c1ccc2c(c1)N(CC(=O)NC1CCCC1)C(=O)C(C)(C)O2	0	10	5	-19	-0.1	6	5274
CSc1nnc(C(C)(C)C)c(=O)n1/N=C/c1ccccc1	x	x	-1	-6	x	x	5716

Carrying on:
SMILES	Mtb hypoxia rep	Mtb hypoxia rep growth	BJeLR viability	PrP 5UTR inh	RN4220 kill	Sa ugtP lethal	Bead autofluor
C=CCSc1nc2sc(C)c(C)c2c(=O)n1CC=C	7	5	13	-24	4.2	18	4455
CN(c1ccc(C(=O)Nc2cccc(O)c2)cc1)S(=O)(=O)c1ccccc1	9	9	-3	-21	4.8	-2	5151
CC(C)N1CCc2c(sc(NC(=O)Cc3ccccc3)c2C(N)=O)C1	6	5	6	-18	-14	-3	5333
COc1ccc(CNC(=O)NCc2ccc(OC)c(OC)c2)cc1OC	-1	8	-16	-28	-0.7	-2	3646
NC(=O)c1ccsc1NC(=O)COC(=O)C1=NNC(=O)CC1	15	1	x	-6	1.8	3	2977
Cc1ccc(-c2nc(S(=O)(=O)c3ccc(C)cc3)c(N(C)C)o2)cc1	-15	-2	-1	-20	5.7	9	5967
COc1ccc2oc(C)c(C(=O)NN)c2c1	10	1	6	-38	2.3	0	4120
CC(C)(C)c1ccc(-c2c(C(=O)O)c(C(=O)O)c3n2CSC3)cc1	-4	-1	10	-29	-2.2	12	3232
COC(=O)C1=C(C)NC(=S)N(C(C)=O)C1c1ccc(OC)c(OC)c1 (centres undefined)	-1	5	-1	-10	4.0	0	2259
COc1ccc(CNC(=O)c2cccc(S(=O)(=O)N3CCN(C)CC3)c2)cc1	8	0	2	0	4.8	0	4163

Entries above that contain bromine (2):
SMILES	Mtb hypoxia rep	Mtb hypoxia rep growth	BJeLR viability	PrP 5UTR inh	RN4220 kill	Sa ugtP lethal	Bead autofluor
CCn1c(SCc2ccc([N+](=O)[O-])cc2)nnc1C(C)NC(=O)c1ccccc1Br (centres undefined)	3	-1	0	-6	1.7	1	5687
COC(=O)CN1C(=O)C2(OCCCO2)c2cc(Br)ccc21	0	5	0	5	-3.3	-4	23376*

Next results
SMILES	Mtb hypoxia rep	Mtb hypoxia rep growth	BJeLR viability	PrP 5UTR inh	RN4220 kill	Sa ugtP lethal	Bead autofluor
O[C@@H]1CCCN2CCc3c([nH]c4ccccc34)[C@H]12	x	x	-3	-35	0.0	1	6267
COCCNC(=O)/C(C#N)=C/c1ccc(OCc2ccc(F)cc2)cc1	23	13	0	-22	1.7	-4	3584
COc1ccc(OCC(O)CNS(=O)(=O)c2cccs2)cc1 (centres undefined)	3	-1	9	-2	3.2	4	3868
CCOc1cc2c(cc1OCC)-n1cccc1C(c1ccc(F)c(OC)c1)NC2 (centres undefined)	3	-4	0	-15	5.0	-15	4276
COc1cc(C=NNC(=O)Cc2nnc(N)s2)cc(OC)c1OC	7	9	x	x	4.3	6	x
CCOc1ccc(C2C=C(c3ccc(C)cc3)Nc3nnnn32)cc1 (centres undefined)	14	9	10	-9	7.0	-2	6950
O=C(CCNC(=O)C1CCN(S(=O)(=O)c2ccccc2)CC1)NCc1ccncc1	9	-3	-3	-15	2.8	6	5390
Fc1ccc(C=NNC(=S)Nc2cccnc2)cc1F	10	9	x	x	5.5	5	x
O=C(c1ccc(Sc2ccccc2)c([N+](=O)[O-])c1)N1CCOCC1	-7	2	-8	-10	-0.2	5	4103
CN(NC(=O)C1CC(=O)N(c2ccccc2)C1)C1=NS(=O)(=O)c2ccccc21 (centres undefined)	3	-3	5	-13	1.9	4	2096
O=C(Nc1ccc(NC(=O)c2cccs2)cc1)c1cccs1	-2	3	-7	-44	1.6	4	6054
CCOC(=O)c1c(-c2ccccc2)cn2ccccc12	x	x	3	-30	3.7	21	2818
Cc1ccc(NC(=O)CSCC(=O)Nc2ncc3c(n2)CC(c2ccco2)CC3=O)cc1 (centres undefined)	2	7	1	-11	1.1	0	10796
COCCCNC(=O)CN1C(=O)/C(=C\c2ccc(C)cc2)Sc2ccccc21	-3	-4	6	23	-2.5	-3	2117
COc1ccc2nc(SCC(=O)NCC(F)(F)F)[nH]c2c1	1	7	-9	-4	6.8	5	4532
